High-throughput results from PubChem.
VDR inh: blocks the human vitamin D receptor; Potency, µM, without a hit: max response, negative = inhibition, hits mostly inhibitors; AID 504847; P11473; 400,000 tested, 0.93% active; VDR-SRC2-3 peptide fluorescence polarization, 2 h; active means well fitted inhibition curve with a large enough effect; inconclusive means small, poorly fitted or top-dose-only effect, or another doubt; inactive means no such curve, though single readings can be large or run the other way; further: series mostly up to about 120 µM
Target sequence (P11473 whole entry, looked up): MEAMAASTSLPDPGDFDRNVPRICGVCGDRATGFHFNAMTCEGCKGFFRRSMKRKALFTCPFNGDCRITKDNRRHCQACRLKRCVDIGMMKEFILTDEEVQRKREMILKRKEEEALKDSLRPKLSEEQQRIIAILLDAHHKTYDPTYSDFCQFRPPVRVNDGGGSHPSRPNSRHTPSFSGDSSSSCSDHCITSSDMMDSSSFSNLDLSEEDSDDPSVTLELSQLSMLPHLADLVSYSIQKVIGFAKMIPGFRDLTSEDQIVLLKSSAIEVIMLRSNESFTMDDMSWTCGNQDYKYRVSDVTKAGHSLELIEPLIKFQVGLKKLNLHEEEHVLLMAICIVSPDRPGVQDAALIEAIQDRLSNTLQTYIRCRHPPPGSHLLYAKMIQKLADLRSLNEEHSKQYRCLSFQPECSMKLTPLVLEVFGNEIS
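Reagent solutions, kept cold and dark, are dispensed first; compounds are then pinned in at 23 nl, plates briefly spun, and incubated 2 h at ambient temperature. Inhibition of VDR–SRC2-3 peptide binding is read by fluorescence polarization.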
Active calls of the source: *; ? = inconclusive; & = joins results of further samples; [ ] = another dose, or the depositor's remark. On the % scale 0 is the no-effect control and ±100 the full control effect; potency means the concentration at half of the fitted maximal effect.

SMILES	VDR inh
Cc1cc(C)n(-c2ccc(C(=O)OCn3nnc4ccccc4c3=O)cc2)n1	-2%
CCCCSc1nc(-c2ccc(OC)cc2)ccc1C#N	-9%
CN(CC(=O)Nc1ccc(Cl)cc1)CC(=O)Nc1cccc2ccccc12	-20%
CC(NC(=O)C1CCN(S(=O)(=O)c2ccc(Br)s2)CC1)c1ccccc1 (configuration not stated)	-11%
CN1CCN(C(=O)CSc2nc3ccc(NC(=O)c4ccccc4F)cc3s2)CC1	-15%
COc1ccccc1-c1nnc(NC(=O)CCS(=O)(=O)c2ccccc2)o1	-13%
COc1ccc(CC(=O)OCC(=O)Nc2c(C)n(C)n(-c3ccccc3)c2=O)cc1	18%
Cc1ccccc1-n1nc2c(c1NC(=O)C1CCCC1)CS(=O)(=O)C2	13%
Cc1cc2cc(CNC(=O)CC(C)C)ccc2n1C	20%
O=C(CSc1nc2c(sc3ccccc32)c(=O)n1Cc1ccco1)NCC1CCCO1 (configuration not stated)	1%
Cc1ccc(C(=O)c2oc3ccccc3c2NC(=O)c2cc(-c3ccc(Cl)cc3)on2)cc1	5%
CCn1c(SCC(=O)NC2CCCCC2)nnc1-c1cccnc1	5%
Cn1ccc(C(=O)Oc2ccc(C(=O)Nc3ccc(F)cc3F)cc2)n1	11%
COc1ccc(CN(C)C(=O)c2cccc(C(=O)N(C)Cc3ccc(OC)cc3)c2)cc1	-17%
CCNC(=O)CN(c1ccc(Cl)cc1)S(=O)(=O)c1ccccc1	-17%
N#C/C(=C\c1ccc[nH]1)C(=O)Nc1ccccc1[N+](=O)[O-]	22%
Cc1cccc(C)c1-n1c(C)nn(CC2CC2)c1=O	-20%
Cc1ccccc1C(=O)NC1CC(C)(C)NC(C)(C)C1	-4%
CC(=O)c1nnn(-c2ccc(C)cc2Cl)c1C	18%
C=CCn1c(=N)c(C(=O)NCCCOC)cc2c(=O)n3cc(C)ccc3nc21	-1%
CC[C@H](C)[C@H]1CNC(=O)C(=O)N1CC1CCN(CC2CCC(C)CC2)CC1 (some centres not stated)	-2%
CCOc1cccc(Nc2ccc([N+](=O)[O-])cn2)c1	7%
CCN(CC)C(=O)Cn1c(=O)n(-c2ccc(CC(=O)NCc3ccccc3)cc2)c(=O)c2sccc21	-8%
COC(=O)c1cc(OC)c(OC)cc1NC(=O)C1CCC(=O)N1S(=O)(=O)c1ccc(C)cc1 (configuration not stated)	-1%
COc1ccc(C(=O)CN2CCN(CCN3C(=O)c4cccc5cccc(c45)C3=O)CC2)cc1	?
Cc1oc(-c2ccc(Cl)cc2)nc1CN1CCC(C(=O)NCc2cccnc2)CC1	-1%
N#Cc1ccc(CSc2ccccn2)c(Cl)c1	10%
c1ccc2c(-n3cccn3)cccc2c1	1%
COc1cccc2oc(CCc3ccccc3)cc(=O)c12	0%
COc1nnc(OC)c2ccccc12	13%
COC(=O)c1ccccc1NC(=O)c1ccc2c(c1)CCN2S(C)(=O)=O	-7%
COc1cccc2cc(-c3nc(-c4ccc(Cl)cc4)cs3)c(=O)oc12	12%
C=CC[C@@H](CC(=O)N[C@H](CO)Cc1ccccc1)C(=O)N[C@H](COC(=O)[C@@H](CC=C)Cc1ccc(F)cc1)Cc1ccccc1	13%
CCC(C(=O)NC1CCCC1)N(Cc1ccco1)C(=O)CNS(=O)(=O)c1ccccc1 (configuration not stated)	20%
Cc1c(C(=O)N2CCCCCC2)c(S(=O)(=O)Nc2ccc(OC(F)(F)F)cc2)c(C)n1C	0%
CCOc1c(Cl)cc(CNc2ccc(S(N)(=O)=O)cc2)cc1OC	-2%
COc1cccc(OC)c1OCCCCN1CCCC1	27%
CCN(CC)S(=O)(=O)c1cccc(-c2nnc(SCC(=O)c3cc(C)n(C)c3C)o2)c1	-7%
CCC(=O)Nc1ccc(NC(=S)NC(=O)c2oc3ccccc3c2C)cc1	-18%
CCCS(=O)(=O)NCCc1cc2c(OC)ccc(OC)c2[nH]c1=O	-7%
COc1cccc(Cn2c(=S)[nH]c3ccc(N4CCOCC4)cc3c2=O)c1	-16%
O=C(C1CCC(=O)N1Cc1cccnc1)N1CCN(c2ccc(F)cc2)CC1 (configuration not stated)	-18%
CS(=O)(=O)N(CC(N)=O)c1cccc(Br)c1	9%
CCN1C(=O)c2cccc3c(N)ccc(c23)C1=O	-11%
Cc1cc(NC(=O)CCCC(=O)N(CC(=O)NC2CCCCC2)c2ccccc2)no1	4%
CCN1CCN(c2ccc(NC(=O)c3ccc4c(c3)[nH]c(=O)n4Cc3ccc(OC)cc3)cc2)CC1	-3%
COC(C[C@H]1O[C@H]1[C@H](O)[C@H](C)OCc1ccccc1)OC	-21%
O=C(Nc1nc2ccccc2n1CCN1CCCCC1)c1ccco1	23%
NC(=O)CC(NC(=O)Cc1ccc(Cl)cc1)c1ccc(NC2CC3CCC2C3)c([N+](=O)[O-])c1 (configuration not stated)	-2%
Cc1cc(C(=O)Nc2ccc3c(c2)OCO3)no1	4%
CN(C)c1ccc2c3c(ccc(N(C)C)c13)C(=O)OC2	-8%
CCOC(=O)c1cnc(SCC(=O)Nc2cccc(OC)c2)nc1N	7%
O=[N+]([O-])c1ccc2nc(N3CCCC3)sc2c1	-2%
Cc1cc(C)c(C(=O)NC2CC(C)(C)Cc3c2cnn3-c2cccc(F)c2)[nH]1 (configuration not stated)	-12%
CCCC(=O)Nc1ccc2oc(-c3cncc(Br)c3)nc2c1	-10%
CCOC(=O)c1nnc(-c2ccccc2)nc1NCc1ccc(Cl)cc1	4%
Cc1ccccc1Nc1ccc2nonc2c1[N+](=O)[O-]	6%
FC(F)(F)c1cnc(N2CCN(C(=S)NCc3ccccc3)CC2)c(Cl)c1	13%
Cc1cccc(-c2ccc3ncnc(NCc4cccnc4)c3c2)c1	-12%
COc1ccc(C(=O)c2c(N)c(-c3nc(-c4ccccc4)cs3)c3ccccn23)cc1	6%

(further entries)
SMILES	VDR inh
Cc1cc(NCCCCCCCNc2cc(C)nc3cc([N+](=O)[O-])ccc23)c2ccc([N+](=O)[O-])cc2n1	87%[activator]
O=C(Nc1ccc2c(c1)C(=O)N(C1CCCCC1)C2=O)C1CCCO1 (configuration not stated)	7%
CCc1ccc(C2CC(c3ccco3)=NN2S(C)(=O)=O)cc1 (configuration not stated)	-21%
C=CCOc1ccccc1CN1CCC(CO)(CCOc2ccccc2)CC1	11%
OC(COc1c(Cl)cc(Cl)cc1Cl)CN1CCCCC1 (configuration not stated)	-6%
CCOC(=O)CC1CCCCN1C(=O)CCCn1nnnc1CN1CCC(C)CC1 (configuration not stated)	-2%
CCC(Oc1ccc(F)cc1)C(=O)Nc1cc(-c2ccc(C)cc2)no1 (configuration not stated)	4%
Cc1cc(C)cc(N2C(=O)N(Cc3cccc(F)c3)c3ccccc3S2(=O)=O)c1	10%
CC(C)(C)OCC1CO1 (configuration not stated)	-12%
Cc1ccc(-c2cn3c(n2)sc2cc(C(=O)NCCC4=CCCCC4)ccc23)c(C)c1	-7%
O=C(NC(=S)Nc1ccc(CN2CCOCC2)cc1)c1cccc([N+](=O)[O-])c1	-18%
COc1ccccc1OCc1ccc(C(=O)N2N=C(C(F)F)CC2(O)C(F)F)o1 (configuration not stated)	16%
O=C1c2ccccc2S(=O)(=O)c2cc(N3CCC(C(=O)N4CCCCC4)CC3)ccc21	-15%
COc1cccc(NC(=O)CC(=O)c2ccc([N+](=O)[O-])cc2)c1	-7%
O=C(O)C1CCCCC1C(=O)OCCCCOC(=O)C1CCCCC1C(=O)O (configuration not stated)	-1%
Cc1cnc(NC(=O)CSc2ncn(-c3ccccc3)n2)s1	17%
COC(=O)C1CC2=C(CC(C)(C)CC2=O)N(c2ccccc2)C1=O (configuration not stated)	-16%
CCOC(=O)c1ccc(CN(Cc2ccc(Br)cc2)S(=O)(=O)c2cccc(Cl)c2C)cc1	1%
Cc1ccc(CNC(=O)C(=O)NCCC2CCCCN2S(=O)(=O)c2cccs2)cc1 (configuration not stated)	0%
O=C1CC[C@@]23CCCN2C(=O)CCCC3C1 (some centres not stated)	15%&11%
O=S(=O)(Nc1ccc(O)c(Sc2nc3ccccc3s2)c1)c1cc(Cl)ccc1Cl	-2%
COc1ccc(-c2nn(C)c3sc(C(=O)Nc4cc(OC)c(OC)c(OC)c4)cc23)cc1OC	0%
COc1cccc(-n2nc(C(C)=O)c(C#N)c2-c2ccco2)c1	-4%
COCCCNC(=S)NC1CC2CCCC(C1)N2Cc1ccco1 (configuration not stated)	9%
O=C(O)/C=C/C(O)c1ccc(Cl)cc1 (configuration not stated)	-24%&-20%&-24%
CCn1c(SCC(=O)c2cccs2)nnc1-c1ccco1	-2%
Cc1ccc(NC(=O)c2cc(-c3cccs3)on2)cc1	-2%
COc1ccc(C)cc1NS(=O)(=O)c1ccc2c(c1)oc(=O)n2C	-11%
O=C(Nc1ccccc1)c1ccc(Br)c(S(=O)(=O)Nc2ccccn2)c1	-3%
CSCCC(=O)N1CCCC(N2CCN(c3cccc(C(F)(F)F)c3)CC2)C1 (configuration not stated)	-3%
Cc1nc2ccccc2n1CC(=O)c1ccc(O)c(O)c1	8%
Cc1cc(Br)ccc1NC(=O)c1cn(C2CCCC2)c(=O)c2c1c1ccccc1n2C	-2%
CN1CCN(C(=O)c2ccc3c(c2)N(Cc2ccccc2F)C(=O)c2ccccc2S3=O)CC1 (configuration not stated)	8%
O=C(O)c1cccc(N/N=C/c2sc(N3CCOCC3)nc2-c2ccccc2)c1	-16%
COc1ccc(Br)c2c1-c1nc(NC(=O)c3cccc(C)c3)sc1C2	?
Cc1ccc(Nc2nc(C)cs2)cc1	-7%
O=C(CN1C(=O)/C(=C\c2ccc(C(F)(F)F)cc2)Sc2ccccc21)NCc1ccco1	3%
CC1(C)CC(=O)C2=C(C1)Nc1[nH]n(-c3ccccc3)c(=O)c1C2c1ccc2c(c1)OCO2 (configuration not stated)	-3%
CCOC(=O)c1ccc(Cn2cnc3ccccc3c2=O)cc1	-10%
CC(C)Oc1cccc(C(=O)C2CCCN(Cc3cnc(N4CCOCC4)s3)C2)c1 (configuration not stated)	0%
CO/N=C/NC(=O)c1c(OC)ccnc1Oc1ccc(F)cc1	7%
CSc1ccc(CN2C(=O)NC3(CCCCCCC3)C2=O)cc1	-1%
Cc1cccc(C(=O)NCCNC(=O)c2ccco2)c1	-19%
Cc1cc(Nc2ccc(C)c(Cl)c2)n2nc(Cc3ccccc3)nc2n1	4%
N#Cc1cccnc1Nc1cccc(Cl)c1	-11%
COc1cc(NS(=O)(=O)c2ccc(NC(=O)COc3ccccc3C)cc2)nc(OC)n1	-13%
CCOc1ccccc1NC(=O)C(c1ccccc1)N1CCN(C(=O)c2ccco2)CC1 (configuration not stated)	-13%
FC(F)(F)c1cc(-c2ccc(Cl)cc2)nc(NCc2cccnc2)n1	4%
CN(C)S(=O)(=O)c1ccc(N2CCCC2)c(C(=O)Nc2ccc(N3CCOCC3)cc2)c1	5%
O=C(Nc1ccc2oc(-c3cccnc3)nc2c1)c1ccco1	8%
Cc1ccc(OCC(=O)NCc2cccnc2)cc1	-9%
O=C(NCCCn1ccnc1)C(=O)NCC1OCCN1S(=O)(=O)c1ccc(Cl)cc1 (configuration not stated)	13%
C#CCCCCCCCCCCCC(O)CC(O)CO (configuration not stated)	-12%
COc1cccc(C2C([N+](=O)[O-])=C(N)Oc3cc(C)oc(=O)c32)c1 (configuration not stated)	-7%
C[C@@H]1CC=C[C@H]2[C@H]1C(=O)N(Cc1ccccc1)[C@H]2c1ccc2ccccc2c1Br	-30%
COCc1cc(C)nc(NC2CC(C)(C)NC(C)(C)C2)c1C#N	-8%
CCCCn1c(SCC(=O)N2CCC(C(=O)OCC)CC2)nc2cc(S(N)(=O)=O)ccc21	2%
CCOc1ccc(NC(=O)COc2ccc(C(=O)NCCc3ccccc3)cc2)cc1	2%
Cn1ccnc1SC(=O)N1c2ccccc2Sc2ccccc21	-12%
CCCC1(C(=O)OCC)NC(c2ccc(OC)cc2OC)C2C(=O)N(c3ccc4c(c3)OCCO4)C(=O)C21 (configuration not stated)	-4%
COc1ccc(C(NC(=O)c2cccc(F)c2)c2ccccc2)cc1 (configuration not stated)	2%
CCOc1ccc(S(=O)(=O)NCC2CCCO2)c2ccccc12 (configuration not stated)	-25%
CC(C)(Cl)C1Cc2cc3ccc(=O)oc3cc2O1 (configuration not stated)	19%

These rows are one share of the data, so the mix of outcomes need not match the whole.
